ClpP mod: qHTS Assay for Activators of ClpP. ATP-dependent Clp protease proteolytic subunit (Bacillus subtilis (strain 168)), P80244. purified B. subtilis ClpP, FRET peptide cleavage, 20 min. Potency, µM (top dose mostly 57.5 µM), without a hit: at the top dose activity change, negative = active. 340,000 tested, 1.9% active; active = well fitted falling curve with a large enough effect; inconclusive = small, poorly fitted or top-dose-only effect; inactive = no such curve, though single readings can be large or run the other way; also: potency is read from the fitted curve at half-maximal effect; the source files actives as falling curves though it sought activators and does not explain the sign; nearly all actives have a fitted effect of over 65% in size; many hits overshoot -100%
Target sequence (P80244 whole entry, looked up): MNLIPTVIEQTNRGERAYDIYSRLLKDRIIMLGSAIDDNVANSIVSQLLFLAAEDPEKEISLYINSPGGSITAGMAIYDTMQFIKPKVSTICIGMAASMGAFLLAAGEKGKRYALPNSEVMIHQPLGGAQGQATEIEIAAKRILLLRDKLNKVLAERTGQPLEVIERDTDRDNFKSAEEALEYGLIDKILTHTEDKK
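Buffer: 100 mM Tris/HCl pH8, 100 mM KCl, 0.05% low protease BSA, 2.5% glycerol, 0.01% Tween-20. ClpP 10 microg/mL final; 20 min RT; delta FRET normalized to ADEP and DMSO controls.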
Menin MLL FP FL: menin-MLL binding inhibition, fluorescein peptide; Fluorescence polarization, fluorescein-MLL peptide displacement from menin; AID 1766; 290,000 tested, under 10 active; FP activity change, % at 61.4 µM; inconclusive = falling polarisation curve, or a change in total fluorescence; inactive = total fluorescence flat and polarisation flat or rising; no compound was filed as active; the % refers to the polarisation; negative = inhibition;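 also: % of control where 0% means no effect; inhibitors lower the polarisation; unlabelled MLL peptide was the positive control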
TRPV1 PAM: enhances activation of the human vanilloid receptor TRPV1 | Q8NER1 | TRPV1-expressing cells, Fluo-8 calcium influx, capsaicin EC20 potentiation; host cell line not named in the record; control for the full effect not named in the record | potentiation, % at 8.33 µM | 320,000 tested, 0.02% active | AID 540277; active means potentiation above 80%; inconclusive means 30% to 80%; inactive means below 30%; also: 0% is about no effect
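Cells expressing TRPV1 were dye-loaded with Fluo-8 and read kinetically: 10 s baseline, 3 min after compound (agonist portion), then 2 min after EC20 capsaicin (allosteric enhancer portion). Calcium-bound dye fluorescence at 480/520 nm.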
TRPML1 ag: activates the human TRPML1 channel; TRPML1-expressing cells, Ca2+ dye fluorescence, FDSS; host cell line not named in the record; reference of the full effect not given here; activation, % (concentration not given with the values); 410,000 tested, 0.12% active; AID 624414; in the data active = activation above about 50%; inconclusive = about 30% to 50%; inactive = below about 30%; also: 0% is about no effect; the text of the record puts the active cut at 80%
Target sequence (Q9GZU1 whole entry, looked up): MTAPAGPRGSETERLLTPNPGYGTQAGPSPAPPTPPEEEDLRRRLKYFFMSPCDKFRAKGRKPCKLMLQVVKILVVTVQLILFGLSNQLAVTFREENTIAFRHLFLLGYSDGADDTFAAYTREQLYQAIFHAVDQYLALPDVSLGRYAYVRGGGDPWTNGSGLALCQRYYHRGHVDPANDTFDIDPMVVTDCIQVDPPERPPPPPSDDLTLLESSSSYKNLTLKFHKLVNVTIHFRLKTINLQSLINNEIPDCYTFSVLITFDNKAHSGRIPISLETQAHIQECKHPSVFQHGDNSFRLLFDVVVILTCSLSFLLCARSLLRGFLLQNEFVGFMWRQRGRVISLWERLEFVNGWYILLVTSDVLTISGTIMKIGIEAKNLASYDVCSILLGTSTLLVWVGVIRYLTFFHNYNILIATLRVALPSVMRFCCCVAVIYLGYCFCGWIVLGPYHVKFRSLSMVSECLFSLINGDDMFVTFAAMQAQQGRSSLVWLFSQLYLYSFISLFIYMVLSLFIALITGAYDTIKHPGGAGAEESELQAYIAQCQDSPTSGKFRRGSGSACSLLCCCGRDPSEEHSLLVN
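Calcium fluorescence on an FDSS kinetic reader gave the read-out. Tet-induced TRPML1-DL cells were plated overnight, dye-loaded (Ca8 with quencher, 45-90 min, room temperature, dark), then read 110 s after compound addition, and again 110 s after 4uM final 54-4 (EC80).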
Sfp inh: inhibitors of Bacillus subtilis Sfp phosphopantetheinyl transferase. Q9F4F7. Biochemical Sfp PPTase activity, qHTS. 310,000 tested, 3.5% active. Potency, µM, without a hit: max response, negative = inhibition, most hits filed as inhibitors; active = well fitted inhibition curve with a large enough effect; inconclusive = small, poorly fitted or top-dose-only effect, or another doubt; inactive = no such curve, though single readings can be large or run the other way;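 also: the enzyme is Sfp with the accession as filed and its product quenches rhodamine fluorescence; potency is read from the fitted curve at half-maximal effect; 0% = enzyme reaction without inhibitor and -100% = no enzyme wells; top concentration of the series not given in the record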
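Compounds were incubated with enzyme (final 15 nM) for 15 min at room temperature before substrate addition started the reaction. Fluorescence at 525 nm excitation, 598 nm emission was recorded immediately and after 30 minutes.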
PINK1 expr mod: changes PINK1 expression | PINK1 immunofluorescence, high-content cytometry, 24 h | Potency, µM (highest dose often 76.6 µM), for the others: at the highest dose activation (PINK1 increase), usual class: activators | 410,000 tested, 0.2% active | AID 624263; active = well fitted activation curve with a large enough effect; inconclusive = small, poorly fitted or top-dose-only effect; inactive = flat fitted curve, though single readings scatter; cell line not stated here;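 also: potency is read from the fitted curve at half-maximal effect; % of control where 0% means no effect; nearly all actives have a fitted effect of over 65% in size; a mitochondrial uncoupler was the plate control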
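PINK1 protein, normally rapidly degraded, was detected by immunofluorescence after 24 hour compound treatment of a stable cell line. Titration data (5 concentrations) came from laser-scanning cytometry, with CCCP-treated wells as controls.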
TRPML1 inh: inhibitors of human TRPML1 channel; Q9GZU1; TRPML1-inducible cells, Ca2+ dye fluorescence, FDSS; hits give low values; inhibition of EC80 agonist-evoked calcium signal; activity change, negative = inhibition, % (concentration not given with the values); 390,000 tested, 0.02% active; AID 624415; in the data active means activity change below about -50%; inconclusive means about -30% to -50%; inactive means above about -30%;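 also: stimulus is agonist 54-4 at its EC80 concentration; % is scaled to controls: 0 for no effect and ±100 for the full control effect; compound concentration not given in the record; the text of the record puts the active cut at -80%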
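Tet-induced TRPML1-DL cells loaded with Ca8 no-wash calcium dye were read kinetically on FDSS. Compound addition was followed by EC80 agonist 54-4 (4 uM final); inhibition was read over 110 s.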
An asterisk follows results filed as active; & = joins results of further samples; [ ] = dose if it differs, or a comment.

COc1ccc(COCC(O)CN2CCc3ccccc3C2)cc1OC (stereo not drawn) was read as ClpP mod 28µM*, Menin MLL FP FL -1.0, TRPV1 PAM -6, TRPML1 ag 0.0, Sfp inh 11%, PINK1 expr mod 0.7% and TRPML1 inh 3.
For COc1ccc([C@H]2C[C@H](O)C[C@@H](CCn3cc(-c4ccccc4)nn3)O2)cc1 the results were ClpP mod 2.7%, TRPML1 ag -0.8 and PINK1 expr mod -1.3%.
Screening NC(=O)C1CCN(C(=O)C2CCC(=O)N(CC3CCCCC3)C2)CC1 (stereo not drawn) returned Menin MLL FP FL 0.6, TRPV1 PAM 4, TRPML1 ag -0.3, Sfp inh 17%, PINK1 expr mod -0.7% and TRPML1 inh -1.
For CC(C)CNC(=O)c1ccc(NC(=O)c2cccs2)cc1 the results were ClpP mod 1.1%, Menin MLL FP FL 3.7, TRPV1 PAM -3, TRPML1 ag 0.0, Sfp inh 22%, PINK1 expr mod 2.3% and TRPML1 inh -3.
Screening CC(C)C(CC(=O)N1CCCCC1)C1CCOC(C)(C)C1 (stereo not drawn) returned ClpP mod -1.2%, Menin MLL FP FL 5.6, TRPV1 PAM -14, TRPML1 ag 0.1, Sfp inh -14%, PINK1 expr mod 5.1%[38.3 µM] and TRPML1 inh -13.
`O=C(Nc1ccc(C(=O)OCc2cc(=O)n3c4c(sc3n2)CCCC4)cc1)c1ccc(F)cc1` gave ClpP mod -9.1%, TRPML1 ag 1.0, PINK1 expr mod 0.4% and TRPML1 inh inconclusive.
`COc1cc(/C=N/Nc2nc3ccccc3s2)ccc1OC(=O)c1ccccc1F` gave ClpP mod -11%, Menin MLL FP FL 6.2, TRPV1 PAM -7, TRPML1 ag 0.5, Sfp inh 4%, PINK1 expr mod -1.0% and TRPML1 inh 45.
For CC(=O)Nc1ccc(Nc2nc(-c3sc(C)nc3C)cs2)cc1 the results were ClpP mod -1.7%, Menin MLL FP FL 1.8, TRPV1 PAM 27, TRPML1 ag -0.3, Sfp inh -14%, PINK1 expr mod 7.5% and TRPML1 inh -19.
Screening O=C(OCC(=O)N(CCc1ccccc1)Cc1ccccc1)c1ccccc1NCCO returned ClpP mod 3.9%, TRPV1 PAM 1, TRPML1 ag 0.1, Sfp inh -2%, PINK1 expr mod 1.5% and TRPML1 inh 12.
For CC1CCc2c(sc3nnn(CC(=O)Nc4cccc(C(F)(F)F)c4)c(=O)c23)C1 (stereo not drawn) the results were ClpP mod -12%, TRPML1 ag 0.8, PINK1 expr mod 1.4% and TRPML1 inh -9.
O=C(O)CCCC(=O)N1CCc2cc(S(=O)(=O)NCc3ccc(F)cc3)ccc21 was read as ClpP mod 1.2%, Menin MLL FP FL 2.3, TRPV1 PAM 10, TRPML1 ag 1.2, Sfp inh -29%, PINK1 expr mod 2.0% and TRPML1 inh -16.
O=C(Nc1ccc(Br)cc1)C1OCCc2ccccc21 (stereo not drawn) was read as Menin MLL FP FL 3.4, TRPV1 PAM -8, TRPML1 ag 2.3, Sfp inh 11%, PINK1 expr mod 4.6% and TRPML1 inh 21.
For Cc1ccc(-c2cccc(C3CC=CC4C3C(=O)N(Cc3ccccc3)C4c3ccc4ccccc4c3)c2)cc1 (stereo not drawn) the results were ClpP mod -11%, Menin MLL FP FL 9.0&7.6, TRPV1 PAM -20, TRPML1 ag -0.1&0.3, Sfp inh 13%&5%, PINK1 expr mod 2.6% and TRPML1 inh -1&-1.
COC(=O)CN1C(=O)C2(C(C#N)=C(N)Oc3c2c(C)nn3-c2ccccc2)c2ccccc21 (stereo not drawn) was read as ClpP mod -1.6%, Menin MLL FP FL 1.1, TRPV1 PAM 1, TRPML1 ag -0.7, Sfp inh 4%, PINK1 expr mod 0.7%[38.3 µM] and TRPML1 inh -7.
Cn1cccc1/C=N/N1CCN(Cc2cccc3ccccc23)CC1 was read as ClpP mod -9.8%, Menin MLL FP FL 2.5, TRPV1 PAM -33, TRPML1 ag 0.4, Sfp inh inconclusive, PINK1 expr mod 10.0% and TRPML1 inh -19.
C/C(=N/NC(=O)c1sc(NS(=O)(=O)c2ccccc2)nc1C)c1sc(N)nc1C was read as ClpP mod -0.3%, Menin MLL FP FL -6.3, TRPV1 PAM 24, TRPML1 ag -0.7, Sfp inh 2%, PINK1 expr mod 0.5% and TRPML1 inh -6.
For O=C(COC(=O)c1cc(=O)c2ccccc2o1)Nc1c(F)c(F)c(F)c(F)c1F the results were ClpP mod 1.2%, TRPV1 PAM 8, TRPML1 ag 0.4, PINK1 expr mod -6.2% and TRPML1 inh 4.
Cc1cc(NC(=O)C23CC4CC(CC(C4)C2)C3)n[nH]1 was read as Menin MLL FP FL -3.0, TRPV1 PAM -19, TRPML1 ag -0.2, Sfp inh 22%, PINK1 expr mod -0.7% and TRPML1 inh 7.
COc1ccc(NS(=O)(=O)c2ccc(N3CCOCC3)c(NC(=O)c3ccco3)c2)cc1 was read as ClpP mod 1.1%, Menin MLL FP FL 4.6, TRPV1 PAM 12, TRPML1 ag 0.2, Sfp inh 19%, PINK1 expr mod 1.5% and TRPML1 inh -18.
COc1ccc(CCNC(=O)CN(c2cc(OC)ccc2OC)S(=O)(=O)c2ccccc2)cc1 was read as Menin MLL FP FL -4.3, TRPV1 PAM -11, TRPML1 ag -0.1, Sfp inh 10%, PINK1 expr mod 3.9% and TRPML1 inh 14.
Screening COc1ccc(S(=O)(=O)N2CCOC2CNC(=O)C(=O)NCc2ccccn2)cc1C (stereo not drawn) returned ClpP mod 0.4%, Menin MLL FP FL 2.2, TRPV1 PAM 6, TRPML1 ag 0.6, Sfp inh 14%, PINK1 expr mod 3.4% and TRPML1 inh -15.
For CCc1ccc(NS(=O)(=O)c2[nH]ncc2C(=O)OC)cc1 the results were ClpP mod 0.1%, TRPML1 ag -0.3, PINK1 expr mod 1.3% and TRPML1 inh -28.
Screening CCc1ccc(C(=O)CSc2nc3cc(S(=O)(=O)N4CCOCC4)ccc3n2CC)cc1 returned ClpP mod -2.9%, Menin MLL FP FL 7.1, TRPV1 PAM -3, TRPML1 ag 2.0, Sfp inh inconclusive, PINK1 expr mod 0.7% and TRPML1 inh -11.
For COC(=O)[C@H](Cc1ccccc1)NC(=O)NCCc1ccc(OC)cc1 the results were ClpP mod -24%, Menin MLL FP FL -11, TRPV1 PAM 25, TRPML1 ag -1.7, Sfp inh 9%, PINK1 expr mod 2.6% and TRPML1 inh 1.
Cc1cccc(C)c1OC(=O)CCN1C(=O)C2C3C=CC(C4CC34)C2C1=O (stereo not drawn) was read as Menin MLL FP FL 2.5, TRPV1 PAM -5, TRPML1 ag -0.1, Sfp inh -7%, PINK1 expr mod 1.9% and TRPML1 inh 17.
Screening O=C(COc1ccc(S(=O)(=O)NC2CCCCC2)cc1)Nc1ccc2c(c1)OCCO2 returned ClpP mod 0.0%, Menin MLL FP FL 2.5, TRPML1 ag 1.7, Sfp inh 32%, PINK1 expr mod 0.9% and TRPML1 inh 11.
For COc1ccc(/C=C(\C#N)c2nc(-c3cc(Cl)ccc3OC)cs2)cc1 the results were ClpP mod -0.1%, TRPML1 ag 1.4, PINK1 expr mod 0.8% and TRPML1 inh -25.
Cc1ccc(NC(=O)COC(=O)c2ccc3ncsc3c2)c(C)c1 was read as ClpP mod 0.2%, TRPML1 ag -0.4, PINK1 expr mod 2.0% and TRPML1 inh 2.
CCOc1ccc(C(=O)c2oc3ccccc3c2NC(=O)c2cc(=O)c3ccc(C)cc3o2)cc1 was read as ClpP mod -1.1%, TRPML1 ag 0.6, PINK1 expr mod 1.2% and TRPML1 inh -2.
Screening COc1cc(/C=C(\C#N)C(=O)NCC2CCCO2)ccc1OC(=O)c1ccco1 (stereo not drawn) returned ClpP mod -6.4%, TRPV1 PAM -14, TRPML1 ag 0.7, PINK1 expr mod -0.3% and TRPML1 inh 31.
Screening O=c1cccccc1NCc1ccccc1 returned ClpP mod -3.4%, Menin MLL FP FL 0.0, TRPV1 PAM 0, TRPML1 ag 0.0, Sfp inh 22µM* and TRPML1 inh 5.
`Cc1cccc(N2CC34C=CC(O3)C(C(=O)O)C4C2=O)c1` (stereo not drawn) gave ClpP mod 0.2%, Menin MLL FP FL 4.3, TRPV1 PAM -4, TRPML1 ag -0.6, Sfp inh 27%, PINK1 expr mod 1.8% and TRPML1 inh 60.
Screening CCOC(=O)c1[nH]c(C)c(C(=O)OC(C)C(=O)Nc2ncc(Cl)cc2Cl)c1C (stereo not drawn) returned ClpP mod 1.3%, Menin MLL FP FL 5.1, TRPV1 PAM -30, TRPML1 ag 0.4, Sfp inh -21%, PINK1 expr mod 6.0% and TRPML1 inh 25.
For CCOC(=O)N1CCN(C(=O)c2ccc3c(=O)n(-c4ccc(F)cc4)c(=S)[nH]c3c2)CC1 the results were ClpP mod 0.0%, Menin MLL FP FL 0.5, TRPV1 PAM -4, TRPML1 ag 0.0, Sfp inh 11%, PINK1 expr mod 1.7% and TRPML1 inh 10.
Cc1nn(CC(=O)Nc2ccccc2F)c(=O)c2c(C)n(-c3ccc(Cl)cc3)nc12 was read as ClpP mod -4.3%, TRPML1 ag 2.8, PINK1 expr mod 0.7% and TRPML1 inh -9.
Screening COc1cc(CCC(=O)OCc2nnc(-c3ccccc3)o2)cc(OC)c1OC returned ClpP mod 1.9%, Menin MLL FP FL -2.3, TRPV1 PAM 1, TRPML1 ag -0.7, Sfp inh 8%, PINK1 expr mod 0.2% and TRPML1 inh 6.

Three consecutive entries out of the list so far, for reference:
For CCOC(=O)N1CCN(C(=O)c2ccc3c(=O)n(-c4ccc(F)cc4)c(=S)[nH]c3c2)CC1 the results were ClpP mod 0.0%, Menin MLL FP FL 0.5, TRPV1 PAM -4, TRPML1 ag 0.0, Sfp inh 11%, PINK1 expr mod 1.7% and TRPML1 inh 10.
Cc1nn(CC(=O)Nc2ccccc2F)c(=O)c2c(C)n(-c3ccc(Cl)cc3)nc12 was read as ClpP mod -4.3%, TRPML1 ag 2.8, PINK1 expr mod 0.7% and TRPML1 inh -9.
Screening COc1cc(CCC(=O)OCc2nnc(-c3ccccc3)o2)cc(OC)c1OC returned ClpP mod 1.9%, Menin MLL FP FL -2.3, TRPV1 PAM 1, TRPML1 ag -0.7, Sfp inh 8%, PINK1 expr mod 0.2% and TRPML1 inh 6.
